KAT2A inh – GCN5L2 (KAT2A) acetyltransferase inhibition; Q92830; GCN5L2 HAT assay, ThioGlo1 CoA-SH fluorescence; Potency, µM (top dose mostly 58.9 µM), for inactives: at the top dose activity change, negative = inhibition, most hits filed as inhibitors; 390,000 tested, 0.21% active; AID 504327; active = well fitted inhibition curve with a large enough effect; inconclusive = small, poorly fitted or top-dose-only effect, or another doubt; inactive = no such curve, though single readings can be large or run the other way
Target sequence (Q92830 whole entry, looked up): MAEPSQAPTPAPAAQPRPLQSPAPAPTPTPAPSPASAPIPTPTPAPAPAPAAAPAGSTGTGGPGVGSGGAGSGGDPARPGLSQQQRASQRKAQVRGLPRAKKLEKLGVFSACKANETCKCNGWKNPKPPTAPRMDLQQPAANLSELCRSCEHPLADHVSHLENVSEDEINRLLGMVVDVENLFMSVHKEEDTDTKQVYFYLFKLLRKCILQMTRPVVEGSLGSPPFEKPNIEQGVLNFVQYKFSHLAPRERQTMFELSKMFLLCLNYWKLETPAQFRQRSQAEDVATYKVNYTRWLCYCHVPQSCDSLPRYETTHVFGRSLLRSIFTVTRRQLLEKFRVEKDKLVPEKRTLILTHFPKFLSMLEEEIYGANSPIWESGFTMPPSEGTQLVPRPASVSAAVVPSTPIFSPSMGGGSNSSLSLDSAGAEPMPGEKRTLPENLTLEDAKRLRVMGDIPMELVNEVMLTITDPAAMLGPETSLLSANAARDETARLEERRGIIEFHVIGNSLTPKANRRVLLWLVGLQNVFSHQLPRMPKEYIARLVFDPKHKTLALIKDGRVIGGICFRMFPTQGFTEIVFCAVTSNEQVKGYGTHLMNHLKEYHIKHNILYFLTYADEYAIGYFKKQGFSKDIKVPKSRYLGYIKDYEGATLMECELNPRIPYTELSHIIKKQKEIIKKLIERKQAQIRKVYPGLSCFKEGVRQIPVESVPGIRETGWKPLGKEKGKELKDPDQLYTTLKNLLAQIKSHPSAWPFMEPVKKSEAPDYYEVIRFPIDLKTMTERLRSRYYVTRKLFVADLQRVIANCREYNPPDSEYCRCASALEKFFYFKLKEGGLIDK
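qHTS, 1536-well. 20nM enzyme, pH 7.5 HEPES/EDTA/Tween-20 buffer; 15 min compound preinc., RT. Start: 75uM H3(1-25), 70uM AcCoA, 50uM ThioGlo1. Read Ex340/Em540 at t=0 (autofluorescence flag) and t=20 min.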
The depositor's hits bear a star; ? = inconclusive; & = joins results of further samples. % is set by controls: 0 for no effect and ±100 for the full control effect; potency is the fitted concentration of half-maximal effect. An excerpt; most or all hits stand in other tables.

KAT2A inh	SMILES
-5%	C=CCN(C(=O)c1csnn1)C(C(=O)NCc1ccc(F)cc1)c1ccccc1F (configuration not stated)
3%	CSc1ccc(CCNC(=O)CCn2c(=O)c3cccn3c3cccnc32)cc1
-1%	CC1CN(c2ccc(Cl)cc2)c2nc3c(c(=O)n(CC(=O)O)c(=O)n3C)n2C1 (configuration not stated)
0%	COc1ccccc1C(=O)NCC(=O)NCCSc1ccc(Br)cc1
-16%	O=C(NC(=S)Nc1nc(-c2ccc([N+](=O)[O-])cc2)cs1)c1ccco1
-2%	CCOC(=O)c1sc(NC(=O)CN(CC(C)C)CC(C)C)c(C(=O)OCC)c1C
-2%	Cc1ccc(C)c(N2CCN(C(=O)CCCOc3cc(=O)n(C)c4ccccc34)CC2)c1
-10%	CCCCNc1ncnc2c1cnn2-c1ccc(C)cc1C
-7%	Fc1ccc(N2CCN(c3ncnc4onc(-c5ccc(Cl)cc5)c34)CC2)cc1
-1%	Cc1ccc(S(=O)(=O)NC(=NCC(=O)O)c2ccc(F)cc2)cc1
?	COc1cc2c(cc1NC(=O)CSc1nnc(COc3ccc(Cl)cc3)n1C)oc1ccccc12
1%	CN(C)S(=O)(=O)c1cccc(NC(=O)CCNC(=O)Nc2ccccc2)c1
-10%	COc1ccnc(Oc2ccc(Cl)cc2)c1C#N
-13%	Cc1nc(C)c(C(=O)N/N=C/c2cn(C)c3ccccc23)s1
-6%	CCOC(=O)C1=C(c2ccccc2)NC(=S)NC1C (configuration not stated)
-2%	Cc1ccc(S(=O)(=O)C2(C(=O)NC3CCCC3)CC2)cc1
-2%	CCCCOn1c(C)c(C(C)=O)c2c3no[n+]([O-])c3ccc21
-6%	CCN=C1S/C(=C\c2cn(CC(=O)NCc3ccco3)c3ccccc23)C(=O)N1CC
0%	O=C(Cc1c(F)cccc1Cl)NNC(=O)c1cccs1
-1%	CC(c1nnc(SCC(=O)N2CCc3ccccc32)n1-c1ccc(Cl)cc1)N(C)C (configuration not stated)
-22%	CCCCc1nc2cc(C(=O)NCc3ccccn3)ccc2o1
-3%	CCC(c1nnnn1Cc1ccco1)N1CCN(c2cc(Cl)ccc2C)CC1 (configuration not stated)
?	COc1ccc2[nH]c3c(C)c4cc[n+](C)cc4c(C)c3c2c1
-8%	Cc1ccc(CCNC(=O)c2cn(C)c3ccc(S(=O)(=O)N4CCCCC4)cc3c2=O)cc1
-6%	Cc1ccc(Cl)cc1-n1ncc2c(NCCCn3ccnc3)ncnc21
2%	CC(=O)N1c2ccccc2N(Cc2ccc([N+](=O)[O-])cc2)C(=O)C1(C)C
-2%	COc1ccc(NC(=O)[C@@H]2CCCN2S(=O)(=O)c2ccccc2F)cc1S(=O)(=O)N1CCCCC1
4%	Cc1nc2cc(NCc3ccc(Cl)cc3)ccc2n1C
1%	COCCCNC(=O)c1nn(C)c2c1CS(=O)(=O)c1ccccc1-2
-9%	O=c1c2cc(NC(=S)NC3CCCC3)ccc2nc2n1CCCCC2

Some of these compounds in order of number of heavy atoms, ascending:
KAT2A inh	SMILES
-10%	COc1ccnc(Oc2ccc(Cl)cc2)c1C#N
-6%	CCOC(=O)C1=C(c2ccccc2)NC(=S)NC1C (configuration not stated)
0%	O=C(Cc1c(F)cccc1Cl)NNC(=O)c1cccs1
-2%	Cc1ccc(S(=O)(=O)C2(C(=O)NC3CCCC3)CC2)cc1
-2%	CCCCOn1c(C)c(C(C)=O)c2c3no[n+]([O-])c3ccc21
-22%	CCCCc1nc2cc(C(=O)NCc3ccccn3)ccc2o1
-1%	Cc1ccc(S(=O)(=O)NC(=NCC(=O)O)c2ccc(F)cc2)cc1
-16%	O=C(NC(=S)Nc1nc(-c2ccc([N+](=O)[O-])cc2)cs1)c1ccco1
-6%	Cc1ccc(Cl)cc1-n1ncc2c(NCCCn3ccnc3)ncnc21
1%	CN(C)S(=O)(=O)c1cccc(NC(=O)CCNC(=O)Nc2ccccc2)c1
-3%	CCC(c1nnnn1Cc1ccco1)N1CCN(c2cc(Cl)ccc2C)CC1 (configuration not stated)
-7%	Fc1ccc(N2CCN(c3ncnc4onc(-c5ccc(Cl)cc5)c34)CC2)cc1
-5%	C=CCN(C(=O)c1csnn1)C(C(=O)NCc1ccc(F)cc1)c1ccccc1F (configuration not stated)
-6%	CCN=C1S/C(=C\c2cn(CC(=O)NCc3ccco3)c3ccccc23)C(=O)N1CC
-2%	Cc1ccc(C)c(N2CCN(C(=O)CCCOc3cc(=O)n(C)c4ccccc34)CC2)c1
-8%	Cc1ccc(CCNC(=O)c2cn(C)c3ccc(S(=O)(=O)N4CCCCC4)cc3c2=O)cc1
?	COc1cc2c(cc1NC(=O)CSc1nnc(COc3ccc(Cl)cc3)n1C)oc1ccccc12

Following part.
KAT2A inh	SMILES
0%	COCCn1c(=NC(=O)c2ccc(S(=O)(=O)N3CCCc4ccccc43)cc2)sc2cc(S(C)(=O)=O)ccc21
-4%	Cc1cccc(OCC(=O)N2CCCc3ccccc32)c1
-10%	CCCn1c(N)c(C(=O)CSc2nnnn2-c2ccc(O)cc2)c(=O)n(C)c1=O
-8%	CC(=O)c1c(C)nc2ccc(Cl)cn12
-5%	COc1ccc(Cl)cc1-c1nc(SCC(=O)N(C)CCC#N)n[nH]1
-1%	CCOc1ccc(S(=O)(=O)NCCC(=O)N(C)CC(=O)Nc2ccc(OC)cc2)cc1
12%	CCC1Oc2ccc(C)cc2N(CC(=O)NCCN2C(C)CCCC2C)C1=O (configuration not stated)
-11%	O=C(NCc1ccc2c(c1)OCO2)c1ccc(Cl)nc1
-1%	CCn1nc(NC(=O)c2ccccc2)c2cc3cccc(C)c3nc21
0%	O=C(CSc1nc2ccccc2o1)N/N=C/c1ccccc1C(=O)O
9%	CC(=O)C1=NOC(CNC(=O)c2c(-c3ccccc3Cl)noc2C)C1 (configuration not stated)
-10%	Cc1cc(-c2nc3ccccc3o2)c2ccccc2n1
-7%	Nn1c(-c2ccccc2Cl)nnc1-c1ccccc1Cl
5%	C=CCn1c(SCC(=O)NCCc2ccccc2)nnc1C1CC1
-7%	NC1C2CN(c3nc4c(cc3F)c(=O)c(C(=O)O)cn4-c3ccc(F)cc3F)CC12 (configuration not stated)
-2%	COc1cc(OC)c(OC)cc1CNC(=O)c1ccc(COc2ccccc2)cc1
-11%	C/C(=N\NC(=O)c1ccc(C(=O)N/N=C(\C)c2ccco2)o1)c1ccco1
3%	COc1ccccc1NC(=O)Cn1c(=O)n(Cc2ccccc2)c(=O)c2c1c1cc(C)ccc1n2C
-12%	CCCCCC(=O)Nc1ccc(-c2csc(N)n2)cc1
-10%	CSc1ccccc1NC(=O)c1ccoc1C
-13%	O=C(NC1CCCCC1)c1ccc(S(=O)(=O)c2ccccc2)cc1
-6%	O=S(=O)(Nc1ccccc1N1CCOCC1)c1cccs1
-24%	Cc1nn(C)cc1CNCc1ccc(OCC(O)CN(C)Cc2ccccc2)cc1 (configuration not stated)
-1%	CC1CN(C(=O)c2ccc([N+](=O)[O-])s2)CC(C)O1 (configuration not stated)
-8%	C=CCSc1nc2sc3c(c2c(=O)n1CC=C)CCc1ccccc1-3
-7%	Cc1ccccc1-n1ncc2c(SCC(=O)NCc3cccs3)ncnc21
-5%	CC(C)Oc1cc(N)c(Cl)cc1Cl
1%	CC(=O)Nc1ccc(NC(=O)C2CCCN2C(=O)NC2CCCCC2)cc1 (configuration not stated)
-20%	N#Cc1c(OCC(=O)c2ccccc2)nc2c(c1-c1ccco1)CCc1ccccc1-2
-7%	Cc1ccc(C(=O)NCC(=O)Nc2ccc(Cl)cc2)s1
-5%	Cc1cccc(NC(=O)CSc2nc3ccccc3c(=O)n2CC2CCCO2)c1 (configuration not stated)
-8%	O=C(CCC(=O)N1CCN(S(=O)(=O)c2cccc(F)c2)CC1)c1cccs1
2%	FC(F)(F)c1cccc(CN2CCCCCC2)c1
-18%	COc1ccc(C(=O)Nc2sc3c(c2C(=O)NCc2ccco2)CCCC3)cc1OC
-8%	C=CC(C)(C)c1cc2cc3ccoc3cc2oc1=O
3%	COC(CNC(=O)c1c[nH]c2ccc(S(=O)(=O)N3CCC4(CC3)OCCO4)cc2c1=O)OC
-4%	O=C(COC(=O)c1cc(=O)[nH]c2ccccc12)NCCc1ccccc1
-4%	Cc1ccc(Nc2nnc(SCC(=O)Nc3cccc(S(=O)(=O)NC4=NCCCCC4)c3)s2)cc1
23%	Cc1ccc(C(=O)Nc2nnc(-c3cccs3)s2)cc1C
-7%	CCOCCCn1c(SCc2nc3ccccc3s2)nc2ccccc2c1=O
-1%	COc1ccc(OC)c(-c2cc(C(=O)Nc3cnn(Cc4ccc(Cl)cc4Cl)c3)no2)c1
-1%	Fc1ccc(-n2nnc(-c3cccnc3Cl)n2)cc1
-3%	CC(C)(C)C(=O)CN1C2=NCCN2c2ccccc21
-10%	COc1ccc(CN(C)C(=O)CC(c2ccccc2)c2ccccc2)cc1
-2%	CCOC(=O)Nc1ccc(N2CCOCC2)c(S(=O)(=O)N2CCOCC2)c1
-1%	COc1cccc(OCc2cc(C(=O)NCc3cnc4ccccn34)no2)c1
2%	CCOC(=O)Nc1ccc(OC)cc1S(=O)(=O)N1CCCCC1
-4%	CCn1c(SCC(=O)Nc2ccc(C(=O)OC)cc2)nnc1-c1cccs1
-11%	CC1(C)Cc2c(sc(/N=C/N3CCCCCC3)c2C#N)C(C)(C)N1
-11%	Cc1[nH]c2ccccc2c1C(c1ccncc1)N1CCN(c2ccc(F)cc2)CC1 (configuration not stated)

(cont.)
KAT2A inh	SMILES
-6%	O=C(NCC1CCCO1)C(C(=O)c1ccccc1)n1cc(Cl)ccc1=O (configuration not stated)
-10%	COc1cccc(Nc2nc3cc(OC)ccc3cc2C#N)c1
3%	CCOC(=O)N1CCN(C(=O)COC(=O)c2cc(Cl)cc(Cl)c2)CC1
-4%	Cc1n[nH]c(=O)c2c(NC(=O)CSc3nnc(C4CC4)n3C)oc(C)c12
-2%	CCCc1nn(C)c(C(=O)Nc2ccc3ccccc3c2)c1Cl
-11%	O=C(Nc1ccc2c(c1)CCC2)c1ccc(Br)o1
-18%	CSc1ncc(C(=O)Nc2ccccc2C(=O)c2ccccc2)c(C(F)(F)F)n1
-14%	CC(=O)Nc1ccc(NC(=O)CSc2nnc(NC(=O)C3CC3)s2)cc1
0%	COc1cccc2cc(C(=O)NCc3ccc(F)cc3)c(=N)oc12
1%	O=C(NC1(C(F)(F)F)N=C2SCCN2C1=O)c1cccnc1 (configuration not stated)
-3%	O=C(CSc1nc2c(c(C(F)(F)F)n1)CCc1ccccc1-2)NCc1ccc(F)cc1
?	CC(NC(=O)/C(C#N)=C/c1ccc(C(=O)O)cc1)c1ccccc1 (configuration not stated)
-6%	COc1ccc(C2CC(c3cccs3)=Nc3ccccc3S2)cc1 (configuration not stated)
-3%	Fc1ccc(Nc2c(-c3ccccn3)nc3ccc(Cl)cn23)cc1
-2%	CC1(C)CC(CCC(=O)NC(=S)Nc2ccccc2Cl)C(=O)O1 (configuration not stated)
-13%	O=S(=O)(Nc1ccc(O)c(NS(=O)(=O)c2ccccc2)c1)c1ccccc1
-8%	Cc1ccc(Cl)cc1NC(=O)N1CCC2(CC1)Oc1ccccc1C(=O)N2Cc1ccccc1F
1%	COc1ccc(NC(=O)CSc2nnc(-c3ccncc3)n2CC2CCCO2)c(OC)c1 (configuration not stated)
-13%	Cc1ncc(CN2CCC(N3CCC(C(=O)N4CCCC4)CC3)CC2)s1
-5%	COc1ccc(-n2c(SCC(=O)Nc3cccc(C)c3C)nc3c([nH]c4ccccc43)c2=O)cc1
4%	COc1ccc(CNC(=O)C2CCN(S(=O)(=O)c3cc(OC)ccc3OC)CC2)cc1
-6%	CCn1nnnc1SCC(=O)c1ccc(C)cc1
-23%	CN(C)Cc1ccccc1-c1ccc2ncnc(NC3CC3)c2c1
-10%	CCOC(=O)C1=CN(Cc2cccc(F)c2)S(=O)(=O)N(C)C1c1ccccc1 (configuration not stated)
-2%	CC(C(=O)NCc1ccccc1F)n1ccc2cc(S(=O)(=O)N3CCCC3)ccc21 (configuration not stated)
-4%	Cc1cnc(C(=O)OC(C(=O)c2ccccc2)c2ccccc2)cn1 (configuration not stated)
-2%	CN(C)S(=O)(=O)Nc1ccc2c(c1)OCO2
5%	CC(=O)C1=C(O)C(=O)N(CCc2c[nH]c3ccccc23)C1c1ccccc1 (configuration not stated)
-3%	CCc1ccc2c(c1)cc(CN(Cc1ccco1)C(C)=O)c1nnnn12
-11%&-7%	COc1cccc(-c2nc(CS(=O)(=O)CC(=O)Nc3cc(F)ccc3F)c(C)o2)c1

2 compounds picked at random from those above:
KAT2A inh	SMILES
-4%	CCn1c(SCC(=O)Nc2ccc(C(=O)OC)cc2)nnc1-c1cccs1
-23%	CN(C)Cc1ccccc1-c1ccc2ncnc(NC3CC3)c2c1

Going on with the list:
KAT2A inh	SMILES
-7%	Cc1ccc(COc2ccccc2-c2cc(C(=O)N/N=C/c3cccnc3)[nH]n2)cc1
-11%	O=C(COc1ccc2ccc(=O)oc2c1)N1CCN(C(=O)C2COc3ccccc3O2)CC1 (configuration not stated)
-6%	O=C(c1c(O)c2ccccc2oc1=O)C1CCC1
-8%	COc1ccc(S(=O)(=O)N2CCc3ccccc32)cc1C(=O)N1CCC(C)CC1
6%	CCc1nn(C(C)C(=O)N(C)Cc2ccccc2)c(=O)c2cc3occc3n12 (configuration not stated)
-1%	O=C(NC1CCCC1)C(Cc1ccccc1)n1cccc1 (configuration not stated)
-6%	COc1ccc(C(=O)NCC(=O)OCC(=O)N2N=C(c3ccc(Cl)cc3)CC2c2ccco2)cc1OC (configuration not stated)
3%	Cc1ccc(C(=O)NCc2occc2C(=O)O)o1

High-throughput results (PubChem)
